From PubChem BioAssay
KCNQ2 enhance – KCNQ2 (rat) channel potentiation; O88943; CHO-K1 KCNQ2, FluxOR thallium flux fluorescence; stronger effect = higher value; B-score at 10 µM; hit rate 0.54% among 310,000; AID 2239;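 active = fluorescence ratio B-score at least 3 SD of library B-scores, with initial fluorescence B-score within 3 SD, cut at about 5.3 in these data; same plate scores as AID 2156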;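 note: B-score of peak minus minimum over baseline fluorescence ratio after K+ and Tl+ stimulus; positive B-score means potentiation of KCNQ2 with more thallium influx and brighter signal; only the inactives scoring about 0 or higher are listed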
Target sequence (O88943 whole entry, looked up): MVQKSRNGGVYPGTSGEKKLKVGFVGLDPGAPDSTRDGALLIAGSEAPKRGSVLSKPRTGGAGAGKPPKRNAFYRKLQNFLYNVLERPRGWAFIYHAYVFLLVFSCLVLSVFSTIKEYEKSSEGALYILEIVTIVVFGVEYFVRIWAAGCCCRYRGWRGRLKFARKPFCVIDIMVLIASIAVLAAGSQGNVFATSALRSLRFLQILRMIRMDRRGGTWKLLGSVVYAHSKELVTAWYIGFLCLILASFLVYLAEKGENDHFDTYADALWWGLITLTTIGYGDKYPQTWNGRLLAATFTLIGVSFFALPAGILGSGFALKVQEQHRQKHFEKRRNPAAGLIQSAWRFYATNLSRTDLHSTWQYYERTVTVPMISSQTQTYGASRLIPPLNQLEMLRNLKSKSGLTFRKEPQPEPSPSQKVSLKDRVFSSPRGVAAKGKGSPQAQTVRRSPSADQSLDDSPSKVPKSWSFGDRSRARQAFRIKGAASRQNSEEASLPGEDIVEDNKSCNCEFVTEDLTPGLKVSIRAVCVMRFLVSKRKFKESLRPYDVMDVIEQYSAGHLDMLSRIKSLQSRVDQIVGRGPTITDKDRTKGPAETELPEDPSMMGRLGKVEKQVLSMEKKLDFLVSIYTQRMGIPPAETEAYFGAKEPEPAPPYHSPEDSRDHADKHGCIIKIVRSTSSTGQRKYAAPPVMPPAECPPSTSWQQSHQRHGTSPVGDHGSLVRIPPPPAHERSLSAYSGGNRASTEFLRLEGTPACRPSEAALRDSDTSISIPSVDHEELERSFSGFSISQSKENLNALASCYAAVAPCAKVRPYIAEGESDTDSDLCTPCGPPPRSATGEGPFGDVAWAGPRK
KCNQ2 enhance baseline – second read-out of KCNQ2 enhance, no call of its own (marks repeat the call); B-score; compound at 10 µM; measured here: initial fluorescence intensity artifact check;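 brightness before thallium and not channel activity; 0 = typical well and far values either way flag optical interference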
Starred values were filed as active, the others as inactive; . = no result given.

Every second line gives: KCNQ2 enhance | KCNQ2 enhance baseline
> CC(C)N1CCN(Cc2ccc(OCc3ccccc3)cc2)CC1CCO (centres undefined)
  0.6 | -0.68
> C=CCNC(=O)/C(=C/c1cccc([N+](=O)[O-])c1)NC(=O)c1ccco1
  0.97 | 0.73
> Cc1ccc(C(=O)NC(=S)NCc2cccnc2)cc1
  0.43 | 0.78
> O=c1c2cc3c(nc2[nH]c(=S)n1-c1ccccc1)CCCC3
  2.1 | -1.1
> CCC(C)(C)n1nnnc1C(c1cc2cc(C)cc(C)c2[nH]c1=O)N1CCN(C(=O)c2ccco2)CC1 (centres undefined)
  0.91 | -0.74
> CCOc1ccc(Nc2ccc([N+](=O)[O-])c3nonc23)cc1
  1 | -3.2
> Cc1cnc(C(=O)N2CCCC(C(=O)c3ccc(Cl)cc3C)C2)cn1 (centres undefined)
  0.68 | 1.1
> Cc1[nH]c(C)c(S(=O)(=O)N(Cc2ccccc2)C(C)C)c1C(=O)N1CCCC1
  0.88 | 1.1
> O=C(CCCn1nnnc1CN1CCOCC1)N1CCC(c2ccccc2F)C1 (centres undefined)
  0.25 | 1.8
> Cn1c(=O)n(C)c2cc(C(=O)c3ccccc3)ccc21
  0.27 | -0.5
> O=C(Cc1cnc2ncnn2c1)N1CCc2c([nH]c3ccccc23)C1c1ccccn1 (centres undefined)
  0.12 | 1.2
> Cc1ccc(N2C(=O)C(O)(C(F)(F)F)C3=C2CC(C)(C)CC3=O)cc1C (centres undefined)
  1.1 | 0.96
> N#C/C(=C(/O)c1ccc([N+](=O)[O-])cc1)c1nnc2n1CCCCC2
  1.4 | 1.7
> COc1ccc(/C(C)=N/OC/C(O)=C(\C#N)c2nc3ccccc3[nH]2)c(OC)c1
  0.14 | -2.7
> CC(C)OCCCNC(=O)Cn1ccc2cc(S(=O)(=O)N3CCCCCC3)ccc21
  1.8 | 0.12
> Cc1nc(/N=C(\N)Nc2ccccc2)nc2ccccc12
  1.9 | -0.68
> COC(C(=O)Nc1cccc(F)c1)c1ccccc1 (centres undefined)
  0.94 | 0.9
> Cc1ccc2nc(-c3ccc(NC(=O)c4ccco4)cc3)[nH]c2c1
  0.34 | -1.3
> COCCNS(=O)(=O)c1cc(Br)ccc1OC
  1.2 | 2
> C[C@@H](C(=O)N1CCN(C(=O)OC(C)(C)C)CC1)n1cc(-c2cn([C@@H](C)C(=O)N3CCN(C(=O)OC(C)(C)C)CC3)nn2)nn1
  0.51 | -1.8

Single records, as listed above.
CC(C)OCCCNC(=O)Cn1ccc2cc(S(=O)(=O)N3CCCCCC3)ccc21 is listed as KCNQ2 enhance = 1.8; KCNQ2 enhance baseline = 0.12
Cc1cnc(C(=O)N2CCCC(C(=O)c3ccc(Cl)cc3C)C2)cn1 (centres undefined) is listed as KCNQ2 enhance = 0.68; KCNQ2 enhance baseline = 1.1
O=C(Cc1cnc2ncnn2c1)N1CCc2c([nH]c3ccccc23)C1c1ccccn1 (centres undefined) is listed as KCNQ2 enhance = 0.12; KCNQ2 enhance baseline = 1.2

(next part)
Every second line gives: KCNQ2 enhance | KCNQ2 enhance baseline
> CCOC(=O)Cn1nc(C)c([N+](=O)[O-])c1C
  0.21 | -1.3
> Cc1ccccc1COc1ccc2oc(C)c(C(=O)O)c2c1
  1.3 | -1.5
> CCCn1cc(CN2CCCC(C(=O)c3cccc(OC(C)C)c3)C2)c(C)n1 (centres undefined)
  1.1 | 0.48
> CC1(C)Oc2ccc3ccc(=O)oc3c2C[C@H]1O
  0.09 | 2.3
> CC(=O)Nc1ccc(SCC(=O)OCC(=O)NC(=O)NCc2ccco2)cc1
  0.27 | -1.5
> O=C(CSCc1nc2c(nnn2Cc2ccc(F)cc2)c(=O)[nH]1)Nc1cccc(C(F)(F)F)c1
  0.72 | 0.13
> CC(=O)Nc1ccc(S(=O)(=O)Nc2nc3ccccc3s2)cc1
  0.54 | -1.4
> COc1cc(-c2nc3ccccn3c2/N=C/c2cccc(OC)c2O)ccc1O
  0.6 | -1
> CCCCC[C@H](O)/C=C/[C@@H]1[C@@H](CCCCCCC(=O)O)[C@@H](O)C[C@H]1O
  1.9 | 0.11
> COc1ccc(S(=O)(=O)N(c2onc(C)c2Cl)S(=O)(=O)c2ccc(OC)cc2)cc1
  0.79 | -0.8
> CCCOc1cccc(NC(=O)OC2CCN(C)CC2)c1
  0.03 | -0.08
> Cc1ccccc1C(OCCN(C)C)C1CCCCC1 (centres undefined)
  0.68 | 0.12
> Cc1ccc(Nc2nc(C(=O)NCC3CCCO3)cs2)cc1 (centres undefined)
  1.8 | 1.8
> CC(=O)Nc1nonc1NC(C)=O
  0.28 | -1.8
> O=[n+]1cc(-c2ccccc2)n([O-])c2c1CCC2
  0.87 | -1.5
> COc1ccc(CNC(=O)CCN2C(=O)c3ccncc3C2=O)cc1OC
  2.3 | 2.7
> CC(=O)/C(N=Nc1cccc(C(F)(F)F)c1)=C(\C)O
  1.6 | -1.3
> O=C(CSc1nc2nc3c(cc2c(=O)n1-c1ccccc1)CCCC3)Nc1ccccc1
  0.1 | 2.3
> O=C(Oc1ccc(N(Cc2cccs2)C2=NS(=O)(=O)c3ccccc32)cc1)c1ccccc1Cl
  0.05 | 0.17
> CCCCC(CC)CNC(=O)C(=O)c1ccccc1NC(C)=O (centres undefined)
  0.97 | 1.2

Other records.
Every second line gives: KCNQ2 enhance | KCNQ2 enhance baseline
> COc1ccccc1NC(=O)Cn1cnc2c(oc3nc4c(cc32)CCCC4)c1=O
  1.6 | 0.22
> COc1ccc2oc(=O)c(C(=O)Nc3cccc(C(C)=O)c3)cc2c1
  0.61 | -2.3
> COc1ccc(Br)cc1C(=O)Nc1ccc(C(=O)NCC(C)C)cc1
  0.08 | 0.74
> OCCC1CN(Cc2cccc3nonc23)CCN1Cc1ccsc1 (centres undefined)
  0.12 | 0.91
> CCc1ccccc1Nc1nc(N)nc(CSCC(=O)Nc2ccc(C)c(C)c2)n1
  19* | -0.81*
> CCCCCC(=O)Nc1cccc2ccccc12
  5.7* | -1.1*
> O=S(=O)(NCC1OCCc2ccccc21)c1ccccc1 (centres undefined)
  0.31 | 0.44
> Cc1nn(C)cc1C(C(=O)NC1CCCCC1)N(Cc1ccc(F)cc1)C(=O)c1cnccn1 (centres undefined)
  0.27 | 0.83
> O=C(c1ccc2oc(Cc3ccc(Cl)cc3)nc2c1)N1CCCCC1CCO (centres undefined)
  0.56 | -0.96
> Cc1occc1C(=O)Nc1ccccc1NC(=O)c1ccoc1C
  0.04 | 0.27
> CCOC(=O)c1nn(-c2ccccc2C)c(=O)cc1OCC(=O)N1CCN(c2ccccc2)CC1
  0.05 | -1.3
> COc1ccc(N(CC(=O)O)S(=O)(=O)c2ccccc2[N+](=O)[O-])c(OC)c1
  0.16 | -0.48
> CC1(C)CC(=O)C(C(C2=C(O)CC(C)(C)CC2=O)c2ccc(Cl)c([N+](=O)[O-])c2)C(=O)C1 (centres undefined)
  0.36 | 0.38
> Cc1ccc(OCC(=O)N(C)CC(=O)Nc2cccc(F)c2)cc1
  0.05 | 0.93
> C/C(=N\O)c1c(C)c2ccccc2n1C
  0.39 | -0.99
> COc1ccc(CCC(=O)NCC2CCCCC2)cc1OC
  1.2 | -0.48
> CCCS(=O)(=O)C/C(N)=N/OC(=O)c1ccccc1Cl
  0.36 | 0.29
> CCSc1nnc(NC(=O)c2ccc(S(=O)(=O)N(C)C)cc2)s1
  0.65 | 0.24
> CCC(Sc1nc(-c2ccccc2)c(-c2ccccc2)[nH]1)C(=O)O (centres undefined)
  0.97 | 0.63
> CC(=O)Nc1ccc(NC(=O)C(C)n2nc([N+](=O)[O-])c(Br)c2C)cc1 (centres undefined)
  0.06 | 0.49

A section taken from the entries so far, for reference:
Every second line gives: KCNQ2 enhance | KCNQ2 enhance baseline
> COc1ccccc1NC(=O)Cn1cnc2c(oc3nc4c(cc32)CCCC4)c1=O
  1.6 | 0.22
> COc1ccc2oc(=O)c(C(=O)Nc3cccc(C(C)=O)c3)cc2c1
  0.61 | -2.3

Next structures
SMILES	KCNQ2 enhance	KCNQ2 enhance baseline
O=C(COc1cccc(NC(=O)c2ccccc2)c1)c1ccccc1	0.11	-0.59
CC1CCc2c(sc(NS(=O)(=O)c3ccccc3)c2C(=O)OC(C)C)C1 (centres undefined)	4.1	0.91
CC1=CS(=O)(=O)CC1Sc1nc(C)n[nH]1 (centres undefined)	1.1	0.41
C[C@]12C[C@H](O)[C@H]3[C@@H](CCC4=CC(=O)CC[C@@]43C)[C@@H]1CC[C@@H]2C(=O)CO	0.42	0.5
O=C(Cn1ccc(C(F)(F)F)n1)Nc1cccc(S(=O)(=O)N2CCCCC2)c1	0.02	-0.27
COCC(=O)Nc1ccc(C(=O)Nc2ccccc2Cl)cc1	1.5	1.2
CNC(=O)CN(c1cccc2ccccc12)S(C)(=O)=O	0.07	-0.27
CCCCc1cc(=O)oc2cc(OC(C)C(=O)NCc3ccccn3)c(Cl)cc12 (centres undefined)	0.06	0.67

(continued)
SMILES	KCNQ2 enhance	KCNQ2 enhance baseline
COc1ccc(-c2coc3cc4oc(=O)c5ccccc5c4cc23)cc1F	0.66	0.41
COC(=O)C(NC(C)=O)(Nc1ccc(Br)cc1)C(=O)OC	0.23	0.15
Cc1ccc(S(=O)(=O)NCC(=O)N(CC(=O)NC2CCCCC2)Cc2ccco2)cc1	1.1	0
Cc1cc(C)cc(C(=O)Nc2cccnc2Cl)c1	1	0.27
O=C(NNC(=S)NCc1ccc(Cl)cc1)c1ccc2c(c1)OCO2	0.07	1.6
NCCc1cnc[nH]1	1.2	.
COCC(C)NC(=O)c1ccccc1[N+](=O)[O-] (centres undefined)	0.71	-0.75
COc1ccc(S(=O)(=O)N/N=C(/C)c2ccncc2)cc1OC	0.44	-1.1

(continued)
SMILES	KCNQ2 enhance	KCNQ2 enhance baseline
CC(=O)c1c(C)[nH]c(C(=O)COC(=O)CCOc2ccc(C)cc2)c1C	0.92	-0.34
Cn1c(=O)c2c(nc(SCCN3CCCCC3)n2Cc2ccccc2)n(C)c1=O	0.98	0.15
COc1ccc2[nH]c3c(=O)n(Cc4ccncc4)cnc3c2c1	1.6	0.01
COc1ccccc1N1CCN(C2CCCN(S(=O)(=O)c3cccc(Cl)c3)C2)CC1 (centres undefined)	0.66	-0.76
Cn1c(SCc2ccc(Cl)cc2)nc(C(F)(F)F)cc1=O	0.06	0.37
COc1ccc(/C=N/NC(=O)c2cccnc2)cc1COc1ccc([N+](=O)[O-])c(C)c1	0.07	-0.46
O=C(NCC1COc2ccccc2O1)c1cn(Cc2ccc(F)cc2)nn1 (centres undefined)	0.03	-0.86
O=C(N/N=C/c1cccnc1)c1cc2ccccc2cc1O	0.88	-0.57

Carrying on:
SMILES	KCNQ2 enhance	KCNQ2 enhance baseline
COc1ccc(C(=O)NCC(=O)Nc2cccc(S(=O)(=O)NCc3ccco3)c2)cc1OC	0.33	0.19
CC(=O)c1cccc(NC(=S)NC2CCCCCCC2)c1	0.58	0.01
O=C(CN(CC1CCCO1)C(=O)c1nsc(Cl)c1Cl)NC1CCCC1 (centres undefined)	0.97	0.6
Cc1noc(C(=O)NC2CCCCC2)c1Cl	0.08	-1.6
CC(=O)NNC(=O)c1csc(-c2csc(C)n2)n1	0.62	-1.3
O=C1c2cc(O)cc(O)c2C(=O)c2c1cc(O)c([C@@H](CO)CCO)c2O	0.68	-2.1
COc1ccc(/C=N/NC(=O)c2ccccc2)cc1OS(=O)(=O)c1ccccc1	0.32	0.02
O=[N+]([O-])c1cc([N+](=O)[O-])c(Oc2cncc(Cl)c2)cc1NN1CCCCC1	0.16	0.12

The listing continues:
SMILES	KCNQ2 enhance	KCNQ2 enhance baseline
CC1CCCC(NC(=O)NC(=O)CCl)C1C (centres undefined)	1.3	0.96
CCS(=O)(=O)N1CCN=C1SCc1cccnc1	0.67	-0.4
COc1ccccc1-c1nnc(NC(=O)C(C)C)s1	0.15	-0.75
O=C(Cn1cnc2ccccc2c1=O)N(Cc1ccco1)c1ccc(O)cc1	0.18	0.63
O=C(CCc1ccccc1)NCCc1ccc(F)cc1	1	0.59
COc1ccc(N=C2C(=Nc3ccc(OC)cc3)N(c3ccccc3)C(=S)N2C(=O)c2ccc(Cl)cc2)cc1	0.17	-0.74
CCOC(=O)c1c(C)n(C)c2ccc(OC)c(NC(=O)c3cccs3)c12	0.66	0.04
Cc1ccc(C(=O)NCc2ccc3c(c2)CCO3)cc1C	0.48	-0.02

The list goes on.
SMILES	KCNQ2 enhance	KCNQ2 enhance baseline
Cc1cccc(NC(=O)CNC(=O)COc2ccc(C(=O)c3ccc(F)cc3)cc2)c1C	0.2	0.52
Cn1nnnc1SCCNS(=O)(=O)c1ccccc1	0.66	1.8
COCCCn1c(=O)/c(=C\c2ccccc2OC(C)C)s/c1=C(/C#N)C(=O)Nc1ccc(C(=O)O)cc1	0.98	0.35
O=C1CCCN1c1ccc(S(=O)(=O)NCCOc2ccccc2)cc1	0.69	3
O=C(Nc1ccnn1C1CCN(C(=O)c2cccc(Cl)c2)CC1)C1CC1	0.94	0.05
Cc1oc(-c2ccccc2)cc1C(=O)Nc1ccc2ccccc2c1	0.27	0.14
Cc1c(NC(=O)c2c(O)c3ccccc3n(C)c2=O)c(=O)n(-c2ccccc2)n1C	0.58	0.25
Nc1nnc(CCS(=O)(=O)c2ccc(Br)cc2)s1	0.74	-0.5

Additional records:
SMILES	KCNQ2 enhance	KCNQ2 enhance baseline
O=C(Nc1ccc(-c2nc3cccnc3s2)cc1)c1cccnc1Cl	0.98	0.66
CCOc1ccc(NC(=O)C(=O)N/N=C/c2ccccc2F)cc1	0.33	0.49
CC(C)NCCCCOc1ccccc1-c1ccccc1	0.01	1.6
COc1cc(CCC(=O)Nc2ccc(Cl)c(C(F)(F)F)c2)cc(OC)c1OC	0.07	1.4
Cc1ccc(S(=O)(=O)NC(=O)c2cccn2C)cc1	2.9	0.05
Cc1cccc(-n2[nH]c(C)c(C=Nc3ccc4[nH]c(=O)[nH]c4c3)c2=O)c1	0.7	-0.38
O=C(/C=C/c1ccc([N+](=O)[O-])cc1)NCc1ccccn1	0.03	0.53
COc1ccc(OCC(=O)NCCNC(=O)c2ccccn2)cc1	0.55	-0.08

These rows are one share of the data; rates above refer to the full screens.
